# High-throughput results deposited in PubChem by National Center for Advancing Translational Sciences (NCATS).
# TRPML1 blocker = human mucolipin-1 channel inhibition. Q9GZU1. TRPML1-inducible cells, Ca2+ dye fluorescence, FDSS; active compounds read low; inhibition of EC80 agonist-evoked calcium signal. activity change, negative = inhibition, % (no concentration beside the values). hit rate 0.02% among 390,000. AID 624415; in the data active means activity change below about -50%; inconclusive means about -30% to -50%; inactive means above about -30%;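 further: stimulus is agonist 54-4 at its EC80 concentration; on the % scale 0 is the no-effect control and ±100 the full control effect; compound concentration not given in the record; the text of the record puts the active cut at -80%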
# Target sequence (Q9GZU1 whole entry, looked up): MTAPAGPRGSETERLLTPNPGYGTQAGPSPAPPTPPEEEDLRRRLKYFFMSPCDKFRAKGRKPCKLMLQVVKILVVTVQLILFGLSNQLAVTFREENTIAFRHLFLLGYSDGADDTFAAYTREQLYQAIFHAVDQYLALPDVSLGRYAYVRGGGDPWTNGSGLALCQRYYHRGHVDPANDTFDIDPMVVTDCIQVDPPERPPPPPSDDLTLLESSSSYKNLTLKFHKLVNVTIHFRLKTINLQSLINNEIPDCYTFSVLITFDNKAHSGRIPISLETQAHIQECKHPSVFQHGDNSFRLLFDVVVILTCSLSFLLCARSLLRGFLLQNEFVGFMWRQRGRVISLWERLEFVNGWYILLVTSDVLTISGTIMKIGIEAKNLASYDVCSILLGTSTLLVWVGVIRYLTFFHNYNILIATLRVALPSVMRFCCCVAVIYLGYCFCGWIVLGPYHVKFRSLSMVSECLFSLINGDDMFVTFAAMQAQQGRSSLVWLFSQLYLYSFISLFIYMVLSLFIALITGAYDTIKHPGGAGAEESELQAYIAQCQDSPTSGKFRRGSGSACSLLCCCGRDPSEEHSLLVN
#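 TRPML1-DL cells, Tet-induced overnight (~16 h, 37 °C) at 1,500 cells/well, were loaded with Ca8 no-wash dye plus quencher for 45-90 min at room temperature. Compounds were pinned during FDSS kinetic reading; agonist 54-4 at EC80 (4 uM final) then added.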
# ClpP mod = qHTS Assay for Activators of ClpP; Potency, µM (doses to about 57.5 µM), for the others: top-dose activity change, negative = active; hit rate 1.9% among 340,000; purified B. subtilis ClpP, FRET peptide cleavage, 20 min; active = well fitted falling curve with a large enough effect; inconclusive = small, poorly fitted or top-dose-only effect; inactive = no such curve, though single readings can be large or run the other way; further: potency means the concentration at half of the fitted maximal effect; the source files actives as falling curves though it sought activators and does not explain the sign; nearly all actives have a fitted effect of over 65% in size; many hits overshoot -100%
# Target sequence (P80244 whole entry, looked up): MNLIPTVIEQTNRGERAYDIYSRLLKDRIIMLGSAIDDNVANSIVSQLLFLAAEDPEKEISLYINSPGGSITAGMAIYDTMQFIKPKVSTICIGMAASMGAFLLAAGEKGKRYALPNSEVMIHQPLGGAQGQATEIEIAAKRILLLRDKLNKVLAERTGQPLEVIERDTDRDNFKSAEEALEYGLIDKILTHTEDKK
#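 ClpP 10 microg/mL final, pH 8 Tris/KCl buffer with BSA, glycerol, Tween-20; compound pinned in; FRET-FV substrate; RT 20 min; Ex320/Em430; ΔFRET vs ADEP 5.8 microM, DMSO, no enzyme.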
# gsp agonist = activates gsp, the McCune-Albright syndrome mutation; Potency, µM (series often up to 76.9 µM), inactives show at the highest dose activation (cAMP increase), actives largely listed as activators; gsp mutant cells, cAMP HTRF, 30 min; control for the full effect not named in the record; hit rate 0.13% among 340,000; active = well fitted activation curve with a large enough effect; inconclusive = small, poorly fitted or top-dose-only effect, or another doubt; inactive = no such curve, though single readings can be large or run the other way; cell line not stated here;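 further: phosphodiesterase inhibitor Ro 20-1724 added with compounds to block cAMP breakdown; potency means the concentration at half of the fitted maximal effect; nearly all actives have a fitted effect of over 60% in size; about a fifth of the inactives were tested at one dose only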
#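 Cells stably selected in G418 were plated at 2000/well, grown 16-24 hr, then given compounds in DMSO with the PDE inhibitor […] (300 uM solution added) for 30 min at 37C; cAMP was read by HTRF.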
# gsp antag = gsp mutant antagonism. gsp-mutant cells, cAMP HTRF, 30 min; control for the full effect not named in the record. Potency, µM (titrated, usually from 76.9 µM), for inactives: at the top dose activity change, negative = inhibition, actives largely listed as inhibitors. hit rate 0.4% among 340,000. AID 624288; active = falling curve of any shape with a large fitted effect; inconclusive = falling curve, mostly with a smaller effect; inactive = flat or rising curve; cell line not stated here;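 further: intracellular cAMP measured with PDE inhibitor Ro 20-1724 present during compound exposure; potency means the concentration at half of the fitted maximal effect; on the % scale 0 is the no-effect control and ±100 the full control effect; nearly all actives have a fitted effect of over 65% in size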
#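 G418-selected cells were plated in DMEM/10% FBS for 16-24 h at 37C, then treated with compounds plus the PDE inhibitor […] (300 uM solution added) for 30 min at 37C. Intracellular cAMP was measured by HTRF after 30 min lysis at room temperature.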
# Menin-MLL FL inh = displaces fluorescein MLL peptide from human menin; Fluorescence polarization, fluorescein-MLL peptide displacement from menin; FP activity change, % at 61.4 µM; 290,000 tested, under 10 active; AID 1766; inconclusive = falling polarisation curve, or a change in total fluorescence; inactive = total fluorescence flat and polarisation flat or rising; no compound was filed as active; the % refers to the polarisation; negative = inhibition;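 further: % of control where 0% means no effect; inhibitors lower the polarisation; unlabelled MLL peptide was the positive control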
# TRPML1 ag = agonists of human TRPML1 channel; Q9GZU1; TRPML1-expressing cells, Ca2+ dye fluorescence, FDSS; host cell line not named in the record; reference of the full effect not given here; activation, % (concentration not given with the values); hit rate 0.12% among 410,000; AID 624414; in the data active = activation above about 50%; inconclusive = about 30% to 50%; inactive = below about 30%; further: 0% is about no effect; the text of the record puts the active cut at 80%
#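 TRPML1-DL cells, Tet-induced overnight (~16 h, 37 degrees C), loaded 45-90 min at room temperature with Ca8 no-wash calcium dye plus quencher. FDSS fluorescence: 10 s baseline, compound pin-transfer, 110 s agonist read, then EC80 54-4 (4uM final) and 110 s antagonist read.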
# * hit, by the source's call; ? = inconclusive; nt = no result given; & = joins results of further samples; [ ] = dose if it differs, or a comment.
SMILES,TRPML1 blocker,ClpP mod,gsp agonist,gsp antag,Menin-MLL FL inh,TRPML1 ag
COc1ccccc1NC(=O)C1=C(C)Nc2c(C(=O)Nc3cccc(C)c3)cnn2C1c1ccccc1C (stereo unspecified),-5,?,nt,nt,nt,3.1
CCc1ccc(CN(C)C(=O)C2CCC(=O)N(CCCN3CCCC3=O)C2)cc1 (stereo unspecified),-2,-5.7%,-7%,9%,-3.8,-0.1
COc1ccccc1N1CCN(C(=O)CCc2nnc3n(C)c(=O)c4sccc4n23)CC1,-15,-12%,nt,nt,nt,0.9
O=C1CCSC2(C(=O)N(Cc3ccc(F)cc3)c3ccccc32)N1c1ccc(Cl)cc1 (stereo unspecified),8,0.5%,nt,nt,nt,0.9
CC1CCN(C(=O)CN(CCc2ccccc2)S(C)(=O)=O)CC1,10,-0.7%,11%,4%,2.3,-0.4
C[C@@H]1CN([C@@H](C)CO)C(=O)CCCn2nncc2CO[C@@H]1CN(C)S(=O)(=O)c1ccc(F)cc1,-4,0.3%,-2%,nt,nt,0.0
COc1ccc(N2CCN(C(=O)COC(=O)CCc3ccccc3OC)CC2)cc1,13,nt,16%[15.4 µM],-1%,nt,2.7
O=C(NCc1ccc(Cl)cc1)c1ccccc1Oc1ccccc1,-2,-0.3%,-30%,-10%,-0.7,2.4
COc1ccccc1NC(=O)c1nnn(CC(=O)Nc2cccc(SC)c2)c1N,-18,17%,-33%[inhibitor],5%,4.9,0.1
O=S(=O)(c1ccccc1)c1nc(-c2ccco2)oc1SCc1ccc(F)cc1,6,-9.7%,nt,nt,nt,1.5
CC(=O)c1ccc(NC(=O)CSc2nnc(-c3ccncc3)o2)cc1,-9,-0.5%,-3%[15.4 µM],-7%,nt,0.6
COc1ccc(C(c2sc3nc(C)nn3c2O)N2CC(C)OC(C)C2)cc1OC (stereo unspecified),22,-1.0%,-27%,4%,1.3,-0.4
COc1ccc(NC(=O)CCCn2c(=S)[nH]c3ccccc3c2=O)cc1,18,0.7%,19%,14%,1.7,-0.9
Cc1ccc2nc(-c3ccc(O)cc3)c(Nc3ccc4c(c3)OCCO4)n2c1,-4&30,4.3%&4.4%,20%,-22%,1.4,3.5&-0.4
Cc1ccccc1N(CC(=O)NCc1ccco1)C(=O)CNS(=O)(=O)c1ccc(F)cc1,-16,nt,-1%[15.4 µM],4%,nt,-0.6
Cc1ccc([N+](=O)[O-])cc1Nc1nc(N2CCOCC2)nc(N2CCOCC2)n1,-15,nt,-3%,-27%,-1.9,-0.5
Cc1nn(Cc2ccccc2)c(C)c1NC(=O)CSc1nc(-c2ccccc2)nc2c1cnn2-c1ccccc1,12,2.6%,5%[15.4 µM],-5%,-2.1,0.8
C=CCOc1ccc(/C=C/C(=O)OCC(=O)NC2CCCCCCC2)cc1,1,3.2%,-25%,5%,nt,0.5
COc1cccc(-n2c(SC)nnc2-c2cnccn2)c1,-11,1.6%,-9%,0%,2.2,-0.6
CCOCCCNC(=O)CN1C(=O)/C(=C/c2ccccc2)Sc2ccccc21,5,3.5%,-3%,-21%,-1.7,0.6

# A draw from above in order of formula weight, ascending:
SMILES,TRPML1 blocker,ClpP mod,gsp agonist,gsp antag,Menin-MLL FL inh,TRPML1 ag
Cc1ccc([N+](=O)[O-])cc1Nc1nc(N2CCOCC2)nc(N2CCOCC2)n1,-15,nt,-3%,-27%,-1.9,-0.5
Cc1ccccc1N(CC(=O)NCc1ccco1)C(=O)CNS(=O)(=O)c1ccc(F)cc1,-16,nt,-1%[15.4 µM],4%,nt,-0.6
Cc1nn(Cc2ccccc2)c(C)c1NC(=O)CSc1nc(-c2ccccc2)nc2c1cnn2-c1ccccc1,12,2.6%,5%[15.4 µM],-5%,-2.1,0.8

# Later entries.
SMILES,TRPML1 blocker,ClpP mod,gsp agonist,gsp antag,Menin-MLL FL inh,TRPML1 ag
CCOC(=O)c1cccc(NC(=O)C2CCC(CNc3c(N4CCOCC4)c(=O)c3=O)CC2)c1 (stereo unspecified),-3,-0.7%,-52%[inhibitor],-1%,4.3,-0.7
Cc1c(Cl)cccc1-n1ncc(C(=O)Nc2ccc3c(c2)OCCO3)c1C1CCN(C(=O)OC(C)(C)C)CC1,-8,-4.5%,nt,nt,nt,3.1
CC(C)NC(=O)c1ccccc1-c1nc(-c2ccccc2Cl)no1,0,2.5%,-44%,5%,1.1,-0.1
COc1ccc(C(C#N)=C2C=CC(=NO)C(C)=C2Cl)cc1,-29,3.4%,25%,3%,nt,0.7
C=CCSc1n[nH]c(-c2ccccc2)n1,2,-4.2%,14%,9%,3.4,-0.7
Cc1ccccc1CNC(=O)Cn1ncn2nc(-c3cccs3)cc2c1=O,-7,-5.5%,nt,nt,nt,0.1
COc1ccc(CN2CCN(C(=O)c3cccc4ccccc34)CC2)cc1Br,0,nt,-44%[inhibitor],-11%,-1.9,0.3
O=C(C1CN(C(=O)c2cc3cc(Cl)ccc3o2)c2ccccc2O1)N1CCCCC1 (stereo unspecified),33,3.9%,-8%,-15%,nt,6.5
O=C1CSC(c2ccc([N+](=O)[O-])cc2)N1CCN1CCCCC1 (stereo unspecified),12,nt,22%[15.4 µM],nt,-4.9,0.0
Cc1cc(Br)c2[nH]c3c(c2c1)CCCC3=O,41,-3.6%,-32%[inhibitor],4%,-1.2,0.2
Cc1cc(C)c(S(=O)(=O)N2CCOCC2)cc1NS(=O)(=O)c1cc(OCC(N)=O)c(C)cc1Cl,34,4.9%,18%,3%,0.3,2.5
Cc1cccc(OCc2nnc(SCC(=O)N3c4ccccc4CC3C)n2C)c1C (stereo unspecified),33,0.9%,-24%,-5%,4.2,1.4
Cc1ccc(-n2ncc(C(=O)NCc3ccco3)c2C2CCN(C(=O)OC(C)(C)C)CC2)cc1,0,0.7%,nt,nt,nt,0.2
CCOC(=O)C1C2C=CC3(CN(CCc4ccccc4)C(=O)C13)O2 (stereo unspecified),6,-4.0%,-48%[inhibitor],5%,-0.7,-0.5
CC1CCN(Cc2nc(-c3ccccc3)no2)CC1,0,-12%,-53%[inhibitor],11%,1.6,-0.4
CCCC[n+]1ccn(C2=C([O-])c3ccccc3C(=O)/C2=N\S(=O)(=O)c2ccc(Cl)cc2)c1,-10,0.5%,20%,-1%,0.6,3.3
O=C(CSc1ncn[nH]1)c1ccc(OC(F)F)cc1,-5,nt,0%[15.4 µM],9%,-2.8,-0.5
COC(=O)CNC(=O)CN1C(=O)N(c2ccc(Cl)cc2)C(N(O)C(=O)Nc2ccc(Cl)cc2)C1(C)C (stereo unspecified),-2,2.6%,?,9%,4.2,-0.6
CCc1ccccc1NC(=O)N[C@H](C(=O)O)C(C)C,9,1.0%,-32%,-3%,-1.1,-0.1
O=C(Nc1nncs1)c1ccc(N2C(=O)C3C4C=CC(C4)C3C2=O)cc1 (stereo unspecified),18,-0.5%,?,-20%,-0.2,-0.8
COc1cccc(C(=O)N/N=C(\CC(C)C)c2ccccc2)c1,6,2.4%,-19%[15.4 µM],-9%,-1.1,-1.0
CCCCn1c(N)c(N(CC)C(=O)c2cc(S(=O)(=O)N3CCN(CC)CC3)ccc2Cl)c(=O)[nH]c1=O,-13,0.7%,4%,12%,nt,0.5
CC1CN(C(=O)CSc2nnc(-c3ccc(Cl)cc3)n2C)CC(C)O1 (stereo unspecified),1,-1.3%,-46%,4%,0.0,0.1
O=C(Nc1cccc(O)c1)c1ccc([N+](=O)[O-])cc1Cl,-7,-1.2%,-146%[inhibitor],5%,-1.2,-0.1
Cc1cc(C(=O)NCCCN2CCCC2=O)cs1,21,-2.6%,5%,8%,2.7,0.5
Cn1c(COc2ccccc2)nc2ccccc21,-12,nt,-2%,-4%,0.0,0.3
COCC(=O)N1CCC(c2nc3ccccc3[nH]2)CC1,5,0.7%,-53%[inhibitor],nt,nt,-0.8
O=C(Cn1cc2c(n1)CCCC2)NCCCN1CCN(C2CCCCC2)CC1,-1,0.6%,-5%,3%,0.1,0.0
COC(=O)CC1C(=O)NCCN1C(=O)c1ccc([N+](=O)[O-])cc1 (stereo unspecified),1,nt,-5%,5%,0.7,1.2
NC(=O)c1ccc(NC(=O)COC(=O)c2c3c(nc4ccccc24)/C(=C\c2ccc4c(c2)OCO4)CCC3)cc1,-19,1.3%,?,?,?,96*
COc1ccc2[nH]c3c(c2c1)CCN1C(=O)C(CC(=O)NCc2ccc(OC)c(OC)c2)C[C@H](C(=O)N(C(C)C)C(C)C)[C@@]31C (stereo partly specified),1,-8.7%,nt,-2%,nt,-0.9
C=C(C)CN1CCN(c2c(CCC#N)c(C)c(C#N)c3nc4ccccc4n23)CC1,13,-4.4%,?,0%,8.3,3.8
CC(=O)Nc1ccc(NC(=O)CSc2nnc(-c3ccc4c(c3)OCO4)o2)cc1,3,7.0%,3%,7%,nt,0.7
Cc1cc(C(=O)CN2C(=O)CN(C)C2=O)c(C)n1-c1cccc(S(=O)(=O)N2CCOCC2)c1,11,-2.5%,-21%,5%,-3.5,1.2
CCOc1ccc(Nc2cc(C)nc3c(C)cccc23)cc1,2,-1.5%,-7%[15.4 µM],1%,2.9,-0.2
COc1ccc(CN(C)C(=O)/C=C/[C@H]2O[C@@H](n3cc(C)c(=O)[nH]c3=O)C[C@@H]2O)cc1OC,-6,-3.0%,nt,nt,nt,1.2
CCc1ccc(C2=C(C)C(N3CCC(C(=O)NCc4ccccc4)CC3)=NS2(=O)=O)cc1,22,-0.3%,nt,nt,nt,3.3
COc1ccc(N(C(=O)/C=C\C(=O)Nc2ccc(Cl)cc2)C(C(=O)NCc2ccco2)c2ccc(C)cc2)cc1 (stereo unspecified),-4,-3.2%,nt,nt,nt,2.6
COc1cc(C2c3c(oc4ccccc4c3=O)C(=O)N2c2nncs2)cc(OC)c1OC (stereo unspecified),-19,-2.4%,nt,nt,nt,1.1
O=C(Nc1ccccc1)c1cnc2n(c1=O)CCS2,12,-2.3%,4%,-4%,0.4,0.0
CCOc1ccc2c(c1)[N+](C)(C)C(C)(C)C=C2C,28,nt,14%,11%,1.2,0.0
COc1ccccc1NC(=O)C(C)OC(=O)CC1CCCC1 (stereo unspecified),-1,1.1%,?,7%,nt,1.5
CCOC(=O)C1=C(C)Nc2nc(SC)nn2C1c1ccc(C(=O)OC)cc1 (stereo unspecified),11,-6.0%,-6%,8%,-0.9,-0.1
COc1cc(C(=O)Nc2cccc(-c3nnc(-c4ccco4)o3)c2)ccc1OC(C)=O,4,1.2%,-9%[15.4 µM],-23%,1.1,1.5
COc1ccc(CNC(=O)C2CCN(C(=O)c3ccc(F)cc3)CC2)cc1OC,-9,0.1%,-32%[inhibitor],1%,nt,-0.2
Cc1ccccc1C(=O)Nc1cc2c(cc1N1CCOCC1)n(C)c(=O)n2C,0,-0.4%,nt,nt,nt,-1.0
CCC1=Nc2cc(C(=O)NC(C)c3ccccc3)ccc2Sc2ccc(Cl)cc21 (stereo unspecified),3,-1.9%,nt,nt,nt,0.4
